Screening results deposited in PubChem by several laboratories.
Arbovirus anti = antivirals against arbovirus infection, primary screen, cell-based, full library, 10K replicate subset. arbovirus infection cell-based antiviral screen. inhibition, % at 10 µM. hit rate 0.37% among 200,000;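 active = inhibition from about 30%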;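 note: bluetongue infection of BSR cells; cell survival read as ATP light after 72 h; 0% = infected wells without compound and 100% = uninfected wells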
Mtb H37Rv = M. tuberculosis H37Rv growth inhibitors, H37Rv strain (AID 1626) | M. tuberculosis H37Rv growth inhibition; higher % means a stronger effect | one-dose inhibition, % at 10 µM; IC50 in µM for titrated hits | hit rate 0.95% among 220,000;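 active = confirmed in a dose series; inconclusive = inhibition above 80% but not taken into the dose series; inactive = below 80% or under 30% at every dose of the series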;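 note: bacteria incubated seven days before Alamar blue readout; 0% = bacteria only wells and 100% = bacteria with antibiotic wells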
RecA intein inh = Mtb RecA intein splicing inhibitors, primary screen, biochemical, fluorescence, HTS. Protein RecA (Mycobacterium tuberculosis (strain ATCC 25618 / H37Rv)), P9WHJ3. cell-free RecA intein splicing. inhibition, %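 (about 9 µM by stock and volumes)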. hit rate 0.75% among 290,000; in the data active = inhibition above about 30%; inconclusive = no clear call, values can overlap the other calls;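 note: 0% = vehicle wells and 100% = reference inhibitor control wells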
Target sequence (P9WHJ3 whole entry, looked up): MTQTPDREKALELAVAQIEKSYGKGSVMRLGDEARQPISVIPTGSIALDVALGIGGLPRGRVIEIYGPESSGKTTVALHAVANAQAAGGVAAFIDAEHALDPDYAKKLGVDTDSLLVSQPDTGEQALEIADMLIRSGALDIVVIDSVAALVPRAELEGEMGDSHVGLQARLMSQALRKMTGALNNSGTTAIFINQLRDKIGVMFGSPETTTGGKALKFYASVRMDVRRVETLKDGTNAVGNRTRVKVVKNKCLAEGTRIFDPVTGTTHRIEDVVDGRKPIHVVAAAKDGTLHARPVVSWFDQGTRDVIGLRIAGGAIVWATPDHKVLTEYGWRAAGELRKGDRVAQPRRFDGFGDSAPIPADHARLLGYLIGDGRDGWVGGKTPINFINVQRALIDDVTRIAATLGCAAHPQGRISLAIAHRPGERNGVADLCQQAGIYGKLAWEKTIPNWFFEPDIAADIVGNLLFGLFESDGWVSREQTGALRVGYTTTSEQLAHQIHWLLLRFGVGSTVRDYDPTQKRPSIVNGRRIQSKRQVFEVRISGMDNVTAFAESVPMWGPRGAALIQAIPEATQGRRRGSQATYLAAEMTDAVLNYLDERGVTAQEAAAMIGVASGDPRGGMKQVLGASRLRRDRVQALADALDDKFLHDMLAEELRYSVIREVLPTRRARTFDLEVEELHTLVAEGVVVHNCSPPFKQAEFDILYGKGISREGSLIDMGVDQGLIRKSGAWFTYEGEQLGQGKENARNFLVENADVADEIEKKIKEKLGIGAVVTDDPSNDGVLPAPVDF
YopH inh = YopH tyrosine phosphatase inhibitors, primary screen, biochemical, fluorescence Ex485/Em525; inhibition, %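 (about 10 µM by stock and volumes)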; hit rate 0.16% among 140,000; AID 898, 2007;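 active = inhibition of 50% or more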;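 note: controls were vehicle for no effect and minimum signal wells for full effect; inactives centre near -20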
Mtb betalactam = beta-lactam sensitization of Mtb H37Rv, H37Rv; M. tuberculosis H37Rv growth with meropenem, percent inhibition; hits of this screen are not shown here; hit rate 0.27% among 330,000; inhibition, % at 25 µM;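 active = about 74% or more and at least 40 points above the plate without the antibiotic, then above 30% in a dose series; inconclusive = first-round hits that could not be retested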;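 note: growth measured after seven days incubation then overnight dye step; 0% = bacteria only wells and 100% = bacteria with antibiotic; twin plates without the antibiotic show which effects depend on it; some results filed as inactive read as strong as hits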
Arbovirus anti repeat = further read-out of Arbovirus anti, marked with its call; inhibition, %; measured here: 10K subset replicate screen; many hits read low in the repeat;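 first of two repeat runs on a subset; 0% = infected and 100% = uninfected wells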
Active calls of the source: *; ? = inconclusive; . = not tested or not shown. Some of the compounds tested, so the mix of outcomes need not match the whole.

SMILES	Arbovirus anti	Mtb H37Rv	RecA intein inh	YopH inh	Mtb betalactam	others
O=C(COC(=O)Cc1cccs1)Nc1cccc(S(=O)(=O)N2CCOCC2)c1	.	.	-0.1	.	-3
CCOP(=S)(OCC)C(O)CCCCCn1c(=O)c(F)cn(C2CCCO2)c1=O (stereo unspecified)	.	.	0.1	.	2
Cc1cc(C)c(C)c(S(=O)(=O)Nc2cccnc2)c1C	.	.	4.0	.	5
N#CC1=C(N)OC2=C(C(=O)CCC2)C12CCN(C(=O)OCc1ccccc1)CC2	0	-8%	-1.1	.	-5
C=CCN1CCN(C(=O)c2ccc(-c3ccccc3)cc2)CC1	.	.	1.2	.	-3
CC1(C(=O)NC2CCCC2)CCC(=O)N1Cc1ccccc1Cl (stereo unspecified)	1	-6%	-0.7	-21	-12
CS(=O)(=O)c1ccc(Cl)c(NC(=O)c2ccc3ccccc3c2)c1	-15	-1%	0.0	-21	?
O=C(O)c1cccc(N=C2NC(=O)C(CO)(CO)S2)c1	.	.	-2.9	.	2
Cc1ccc(C(=O)N/N=C\c2cc3c(cc2Br)OCO3)cn1	.	.	-1.5	.	4
O=C(O)CCCCCN1C(=O)C(O)=C(C(=O)/C=C/c2ccccc2)C1c1cccc([N+](=O)[O-])c1 (stereo unspecified)	10	-5%	3.6	.	1
CC(C)Cn1c(=O)[nH]c2ccccc21	4	-7%	-1.8	-15	-6
CCCc1cc(C(N)=O)c(NC(=O)C2CCCO2)s1 (stereo unspecified)	0	-10%	7.7	-32	10
CCOCCCN(C(=O)CCC(=O)Nc1cc(C)on1)C(C(=O)NC(C)(C)C)c1ccccc1Cl (stereo unspecified)	.	.	1.0	.	2
COc1cccc(CNn2c(-c3cccc(C)c3)nc3ccccc3c2=O)c1	-4	15%	-1.4	-31	5
CCC1CN(C(=O)N2CCC(C(=O)NCc3ccco3)CC2)c2ccccc2O1 (stereo unspecified)	.	.	-23	.	4
NS(=O)(=O)c1cnccc1Nc1cccc(F)c1	.	.	-0.9	.	27
COc1ccc(N2CCN(S(=O)(=O)CCNC(=O)COc3cccc(OC)c3)CC2)cc1	.	.	1.3	.	6
CS(=O)(=O)N(CC(=O)N1CCOCC1)c1cccc([N+](=O)[O-])c1	20	0%	0.8	.	1
COc1cc(OC)c2c3c(c(C4CCCCC4)nc2c1)CCC3	.	8%	-27	.	8
Cc1cccc(-c2n[nH]c(=S)n2/N=C/c2ccc(C)o2)c1	4	8%	1.6	-25	4
COc1cc(C(=O)NCCSc2ccccc2)cc(OC)c1OC	.	.	-6.7	.	2
CCOC(=O)c1cc(-c2ccccc2)n(Cc2cc(CC)no2)n1	.	.	-0.5	.	-1
Cc1ccc(S(=O)(=O)N2CCC(C(=O)NNC(=O)c3ccccc3O)CC2)cc1C	.	.	-2.9	.	-1
O=C(CSc1ncc(-c2ccc(F)cc2)n1Cc1ccco1)Nc1ccc2c(c1)OCO2	-9	.	2.8	-42	-6
CCc1ccc(-c2cc(C(=O)N/N=C/c3ccccn3)[nH]n2)cc1	2	1%	-3.7	.	71
CC(C)CO/C(=N/S(=O)(=O)c1ccccc1)c1ccccc1	4	-6%	3.8	9	-5
CN(CC1CCCN(CCc2ccc(Cl)cc2)C1)C(=O)CC(F)(F)F (stereo unspecified)	.	.	0.1	.	-3
COc1ccc(Cl)cc1NC(=O)c1nnn(CC(=O)Nc2cc(C)cc(C)c2)c1N	.	.	-0.2	.	-9
CCOCCCNC(=O)C1CCCN(S(=O)(=O)c2cccc3nsnc23)C1 (stereo unspecified)	.	.	-1.9	.	-7
CCOc1ccc2nc(N3CCCC(C(=O)NCCCN4C(C)CCCC4C)C3)sc2c1 (stereo unspecified)	.	.	-3.1	.	1
O=C(NCc1cccnc1)Nc1ccc(Cl)cc1Cl	.	.	-3.1	.	-4
CC(C)(C)[C@H]1C=C(C(=O)NCc2nc3ccccc3[nH]2)O[C@@H](OCCCCO)C1	3	-4%	-0.2	.	-11
COc1cccc(C(=O)N2CCN(C(=O)C3COc4ccccc4O3)CC2)c1 (stereo unspecified)	.	.	-3.1	.	-9
ON1C2CCCCC2N(O)C1c1ccccc1C(F)(F)F (stereo unspecified)	1	4%	-3.0	-34	3
Cc1cc(-c2nnc(SCCC(=O)Nc3ccccc3)o2)no1	.	.	-0.1	.	40
Cc1ccc(NC(=O)c2ccc(Cl)nc2)cc1	-7	-6%	-1.7	.	6
O=C(O)c1ccccc1NC(c1ccccc1)c1ccc(Cl)cc1 (stereo unspecified)	.	.	12	.	-8
CCn1c(C)c(C(C)=O)c(N2CCC(C(N)=O)CC2)nc1=S	6	6%	3.1	-28	5
Cc1occc1C(=O)N/N=C/C=C/c1ccccc1	4	28%	1.2	.	7
CC(C)(C)C(=O)N1CCN(c2ccc(Cl)cc2[N+](=O)[O-])CC1	4	20%	1.1	-8	-4

Compounds from the list above containing fluorine (5):
SMILES	Arbovirus anti	Mtb H37Rv	RecA intein inh	YopH inh	Mtb betalactam	others
CCOP(=S)(OCC)C(O)CCCCCn1c(=O)c(F)cn(C2CCCO2)c1=O (stereo unspecified)	.	.	0.1	.	2
NS(=O)(=O)c1cnccc1Nc1cccc(F)c1	.	.	-0.9	.	27
O=C(CSc1ncc(-c2ccc(F)cc2)n1Cc1ccco1)Nc1ccc2c(c1)OCO2	-9	.	2.8	-42	-6
CN(CC1CCCN(CCc2ccc(Cl)cc2)C1)C(=O)CC(F)(F)F (stereo unspecified)	.	.	0.1	.	-3
ON1C2CCCCC2N(O)C1c1ccccc1C(F)(F)F (stereo unspecified)	1	4%	-3.0	-34	3

New compounds follow.
SMILES	Arbovirus anti	Mtb H37Rv	RecA intein inh	YopH inh	Mtb betalactam	others
O=C(c1cnn2c(C(F)F)cc(-c3ccccc3)nc12)N1CCN(Cc2ccc3c(c2)OCO3)CC1	.	.	3.9	.	72
CCN1CCN(C(c2cccnc2)c2cc(Cl)c3cccnc3c2O)CC1 (stereo unspecified)	-23	0%	70*	-50	10
CCOc1cccc(CN2CCCC(C(=O)c3cccc(C(F)(F)F)c3)C2)c1O (stereo unspecified)	13	2%	2.4	.	12
Cc1ccc(CSc2nc3c(c(N(C)C)n2)CCCC3)cc1	-4	18%	-0.3	-19	85
CCn1c(SCC(=O)Nc2ccccc2C(=O)OC)nnc1-c1ccc(N)cc1	-10	-1%	-1.8	-37	-4
CN1C(=O)C2(OCC(CO)([N+](=O)[O-])CO2)c2ccccc21 (stereo unspecified)	.	.	1.5	.	0
O=C(O)C1CCN(c2ccc(Cl)nn2)CC1	10	.	-1.6	.	9
Cc1ccc(-n2c(C)cc(/C=N\NC(=O)CC(=O)NC(C)C)c2C)cc1	4	4%	5.0	-30	2
Cc1cc(C(=O)Nc2ccccc2C(=O)O)ccc1NC(=O)COc1cccc(C)c1C	.	.	0.8	.	6
COc1cc(C2C(C(=O)/C=C/c3ccccc3)=C(O)C(=O)N2c2ccccn2)ccc1O (stereo unspecified)	1	2%	-2.9	.	-3
CC(=O)Oc1cccc(N2C(=O)C3CC=CCC3C2=O)c1 (stereo unspecified)	10	-7%	-0.6	-24	-1
CCN(CC)CCN1c2ccccc2Sc2ccccc21	.	.	-2.5	.	-2
Cc1cccc(CCNC(=O)C2CCN(S(=O)(=O)N3CCOCC3)CC2)c1	.	.	-6.1	.	-3
CCN(CC)c1ccc(NC(=O)CN2CCN(CC(=O)Nc3ccc(F)cc3)CC2)cc1	-3	3%	.	3	-1
Cc1ccc(NC(=S)N2CCN(C(=O)c3ccccc3)CC2)c(C)c1	5	2%	5.0	.	8
Nc1cc(S(=O)(=O)N2CCCCC2)ccc1Oc1ccc(Cl)cc1	-1	3%	7.5	.	-1
N#Cc1ccc(N2CCN(C(=O)c3cccs3)CC2)c(F)c1	.	.	-2.9	.	0
CC(=O)c1c(C)[nH]c(C(=O)Nc2nc(-c3ccccc3)c(C)s2)c1C	9	3%	8.3	-10	3
CCOC(=O)c1c(N)sc(C(=O)N2CCOCC2)c1C	0	-7%	4.1	-18	-8
Cc1nc2c(Cl)cccc2[nH]1	-2	25%	2.5	-38	-11

Brought forward from above: two entries, followed by the next part.
SMILES	Arbovirus anti	Mtb H37Rv	RecA intein inh	YopH inh	Mtb betalactam	others
CCOC(=O)c1c(N)sc(C(=O)N2CCOCC2)c1C	0	-7%	4.1	-18	-8
Cc1nc2c(Cl)cccc2[nH]1	-2	25%	2.5	-38	-11
COc1ccc(C(=O)NC2CC3CCCC(C2)N3CC(C)C)cc1OC (stereo unspecified)	13	-4%	0.1	2	-7
O=C(Cn1cnc2c(cnn2-c2ccccc2)c1=O)Nc1ccc(S(=O)(=O)N2CCOCC2)cc1	8	5%	-0.3	-1	-2
CC(Sc1nnc(NC2CCCCC2)s1)C(=O)Nc1ccc2c(c1)C(=O)c1ccccc1C2=O (stereo unspecified)	-3	?	3.6	-7	97
Cc1csc(-c2cnn(-c3ccccc3)c2NC(=O)c2ccccc2)n1	0	-3%	2.1	-57	23
CC(=O)c1ccc(NC(=O)c2noc3c2CCCCC3)cc1	-1	.	3.5	4	13
C=CCn1c2ccccc2c2nnc(SCCN3CCOCC3)nc21	.	.	0.6	.	1
COc1ccc(C(=O)NC(=S)Nc2ccccc2N2CCCCC2)cc1[N+](=O)[O-]	6	34%	12	-11	0
COC(=O)C(CCSC)NC(=O)/C=C/c1ccc(OC)cc1 (stereo unspecified)	4	22%	1.0	.	77
CC(C)c1ccc(OCC(=O)NC(Cc2c[nH]c3ccccc23)C(=O)O)cc1 (stereo unspecified)	8	2%	2.9	.	1
O=C(NC(=S)Nc1ccc(Cl)cc1Cl)C1CC1	.	.	5.9	.	?
Cn1nnnc1SCc1ccc(C(=O)Nc2ccc(Br)cc2)cc1	-1	-1%	-1.3	-23	-5
O=[N+]([O-])c1cccc(S(=O)(=O)Nc2ccc(Cc3ccncc3)cc2)c1	.	6%	1.6	.	-2
CC1Cc2ccccc2N1C(=O)c1ccc2nccnc2c1 (stereo unspecified)	.	.	-1.1	.	4
O=C(CSCc1ccccc1)N=Nc1c(O)[nH]c2ccccc12	-19	-3%	3.5	-20	-5
O=C(NCc1ccccc1)c1ccc2c(=O)n(CC3CCCO3)c(=S)[nH]c2c1 (stereo unspecified)	1	-2%	11	-33	7
Cc1ccc(S(=O)(=O)NN)c(C)c1N1CCCC1=O	.	9%	-4.4	.	-6
CCOC(=O)C(NC(=O)CC)(Nc1ccc(S(=O)(=O)Nc2ncccn2)cc1)C(F)(F)F (stereo unspecified)	5	5%	-0.1	-40	-5
CC(C)(C)C(=O)Nc1ccccc1C(=O)N1CCCC1	1	5%	2.1	-26	-8
COc1ccc(CCNC(=O)C(=O)NCCCN2CCOCC2)cc1	11	0%	0.4	.	2
Nc1nc(SCC(=O)N2N=C(c3ccc(Cl)cc3)CC2c2ccco2)n[nH]1 (stereo unspecified)	.	-3%	0.9	.	-1

Retrieved by compound from above (two):
SMILES	Arbovirus anti	Mtb H37Rv	RecA intein inh	YopH inh	Mtb betalactam	others
Cc1ccc(S(=O)(=O)NN)c(C)c1N1CCCC1=O	.	9%	-4.4	.	-6
CC(C)c1ccc(OCC(=O)NC(Cc2c[nH]c3ccccc23)C(=O)O)cc1 (stereo unspecified)	8	2%	2.9	.	1

The results go on.
SMILES	Arbovirus anti	Mtb H37Rv	RecA intein inh	YopH inh	Mtb betalactam	others
Cc1cccc(C)c1NC(=O)/C(C#N)=C/c1cccs1	8	8%	0.2	-15	62
Cn1cc(CN(Cc2ccccn2)C[C@@H]2CCC(=O)N2)c(-c2ccccc2F)n1	-5	-8%	-0.9	.	-4
CCOC(=O)C1CN(C(C)(C)C)C(=O)C1=O (stereo unspecified)	-1	12%	2.4	-34	5
CCCn1c(SCC(=O)NC2CCCCC2)nnc1-c1ccco1	.	.	-0.2	.	3
O=c1c2cc(N3CCOCC3)ccc2[nH]c(=S)n1CCCN1CCN(c2ccccc2F)CC1	-17	9%	.	-15	8
Nc1c(C(=O)NCc2ccccc2)nnn1Cc1ccccc1	-1	-1%	0.4	-50	-3	Arbovirus anti repeat=-5
O=C(COc1ccc(C(=O)c2ccccc2)cc1)NCC1CCCCC1	2	3%	6.9	-22	2
CNS(=O)(=O)c1ccc(NC(=O)c2ccccn2)cc1	0	-6%	-5.8	-24	-4
NS(=O)(=O)c1cccc(NC(=O)CSc2ccccn2)c1	-1	-10%	-2.2	2	-14
Fc1ccc2c(c1)nnn2C1CCN(Cc2ccccc2)CC1	-1	-20%	1.4	-38	5
CC(=O)NC(NC(=S)Nc1ccc(N=Nc2ccccc2)cc1)C(Cl)(Cl)Cl (stereo unspecified)	-30	1%	1.9	3	10
Cc1ccc(C(C(=O)NC(C)(C)C)N(CC2CCCO2)C(=O)Cn2nnc(-c3ccc(C)o3)n2)cc1 (stereo unspecified)	-14	-1%	-0.3	-37	-1
